Assay outcomes from PubChem BioAssay.
VDR inh: vitamin D3 receptor (human) inhibition; VDR-SRC2-3 peptide fluorescence polarization, 2 h; hit rate 0.93% among 400,000; P11473; Potency, µM, for the others: max response, negative = inhibition, hits mostly inhibitors; AID 504847; active = well fitted inhibition curve with a large enough effect; inconclusive = small, poorly fitted or top-dose-only effect, or another doubt; inactive = no such curve, though single readings can be large or run the other way; also: series mostly up to about 120 µM
Target sequence (P11473 whole entry, looked up): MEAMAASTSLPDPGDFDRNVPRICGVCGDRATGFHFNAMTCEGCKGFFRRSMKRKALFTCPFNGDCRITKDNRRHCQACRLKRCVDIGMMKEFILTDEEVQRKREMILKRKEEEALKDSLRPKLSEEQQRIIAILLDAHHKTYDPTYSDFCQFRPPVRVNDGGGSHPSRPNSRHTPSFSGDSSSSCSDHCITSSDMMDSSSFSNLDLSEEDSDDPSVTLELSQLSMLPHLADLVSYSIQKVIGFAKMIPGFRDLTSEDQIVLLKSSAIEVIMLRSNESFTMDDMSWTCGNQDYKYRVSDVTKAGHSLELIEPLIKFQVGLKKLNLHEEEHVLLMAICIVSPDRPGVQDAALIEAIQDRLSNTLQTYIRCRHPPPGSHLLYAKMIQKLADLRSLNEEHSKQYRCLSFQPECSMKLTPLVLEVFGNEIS
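Measured by FP: displacement of SRC2-3 coactivator peptide from VDR by library compounds, following a two-hour ambient incubation.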
* marks the source's active call; other numbers are inactive results; ? = inconclusive; & = joins results of further samples. % is scaled to controls: 0 for no effect and ±100 for the full control effect; potency is read from the fitted curve at half-maximal effect. An excerpt; the hit share may differ from the screen's.

VDR inh | compound
16.9% | CC(=O)c1ccc(O)c(CSc2nncn2C)c1
9.5% | O=C(c1ccco1)N1CCN(C(=O)c2cc(-c3ccccc3F)no2)CC1
29.8% | COc1ccc(CCC(=O)OCC(=O)Nc2ccc(OC)c(OC)c2)cc1OC
-0.2% | CCn1c(=O)c(=O)[nH]c2c(=O)oc3ccc(S(=O)(=O)Nc4ccc(OC)cc4)cc3c21
7.9% | C[C@@H](O)C#C[Si](C)(C)c1ccccc1
0.1% | Cc1ccc(NC(=O)CSc2nnc(C3CC3)n2C)cc1S(=O)(=O)N1CCCCC1
10.0% | O=C(CCc1nc(CN2CCN(S(=O)(=O)c3ccc(F)cc3)CC2)no1)N1CCCCC1
-21.9% | COc1ccc(-c2cc3c(=O)n(CC(=O)NCCN4CCCC4)nc(C)n3n2)cc1
-26.4% | CCOc1cc(/C=C(\C#N)C(=O)NCC2CCCO2)ccc1OCC(N)=O (stereo unspecified)
13.2% | CCC1CCCCN1CC(O)COCc1cccc(OC)c1 (stereo unspecified)
2.8% | Cc1ccc(C)c(S(=O)(=O)NNC(=O)c2sc(NS(=O)(=O)c3ccccc3)nc2C)c1
0.9% | O=C(COC(=O)c1cc(=O)[nH]c2ccccc12)NC1CCCCC1
7.5% | CCOC(=O)c1cccc(Nc2ncnc3ccccc23)c1
-4.5% | O=C(N/N=C/C=C/c1ccccc1)c1ccc(Br)cc1
-20.6% | Clc1ccc(N/N=C/c2ccncc2)cc1Cl
2.6% | Fc1ccc(/C=N/NC(=S)Nc2cccnc2)cc1F
-3.2% | Cc1ccc2cc(C#N)c(N3CCCN(C(=O)c4cnccn4)CC3)nc2c1
15.1% | N#CCCn1c(O)c(N=NC(=O)CNC(=O)c2cccs2)c2ccccc21
0.8% | Cc1nc(C(=O)N(C)C)nn1-c1ccc([N+](=O)[O-])cc1
0.8% | O=C(CCCCC(=O)Nc1ccc(F)cc1F)Nc1ccc(F)cc1F
9.3% | O=C(C1CCCCC1)N(Cc1cccnc1)c1nc2c(F)cccc2s1
-5.5% | CCc1nnc(NS(=O)(=O)c2ccc(NC(=O)Nc3ccc(OC)cc3)cc2)s1
-3.6% | CC(=O)c1c[nH]c(C(=O)NCc2cccc(C(F)(F)F)c2)c1
-3.6% | CC(=O)Nc1cc(Br)ccc1O
2.1% | Clc1ccc(Cn2cccn2)cn1
8.9% | CCOC(=O)CNC(=O)N1[C@H](c2cccs2)[C@@H](C)C(=O)[C@@H](C)[C@@H]1c1cccs1
24.5% | Cc1ccc(N(CC(=O)Nc2ccc3c(c2)OCCO3)S(C)(=O)=O)cc1
-4.4% | COC(=O)c1ccc(CN2CCC(CO)(CCOc3ccccc3)CC2)cc1
-10.0% | CC(C)[C@H](NC(=O)c1ccccc1)C(=O)OCC(=O)NCc1ccc2c(c1)OCO2
-7.1% | CCOC(=O)c1ccccc1NC(=O)c1c(-c2ccccc2)noc1C
-3.8% | COc1cccc(/C=C/C(=O)NNC(=O)c2ccncc2)c1OC
-0.5% | CC1Nc2ccccc2C(=O)N1NS(=O)(=O)c1ccccc1 (stereo unspecified)
12.5% | CC(=O)c1cccc(NC(=O)c2ccc(S(=O)(=O)N3CCCCC3)cc2)c1
-12.0% | CC(C)(C)c1cn(-c2ccccc2)c(=S)[nH]1
-4.1% | CCCn1c(SCc2nc3sc(C)c(C)c3c(=O)[nH]2)nc2ccccc2c1=O
-5.6% | CC(C)C[C@H](NC(=O)[C@H](CC(C)C)NC(=O)[C@H](Cc1ccccc1)NC(=O)[C@@H](N)CO)C(=O)N[C@@H](CCCNC(=N)N)C(=O)N[C@@H](CC(N)=O)C(=O)N1CCC[C@H]1C(=O)N[C@@H](CC(N)=O)C(=O)N[C@@H](CC(=O)O)C(=O)N[C@@H](CCCCN)C(=O)N[C@@H](Cc1ccc(O)cc1)C(=O)N[C@@H](CCC(=O)O)C(=O)N1CCC[C@H]1C(=O)N[C@@H](Cc1ccccc1)C(=O)O
4.4% | O=C(NCCN1CCN(c2cccc(Cl)c2)CC1)C1CCCN(S(=O)(=O)c2cnc[nH]2)C1 (stereo unspecified)
-16.0% | O=C(O)c1ccccc1N/N=C/C1=C(N2CCOCC2)C(=C\c2ccccc2)/CC1
-2.6% | C=CCOc1ccc(/C=C/C(=O)OCC(=O)NCc2cccc(OC)c2)cc1
9.3% | Brc1ccc(C2=Nn3c(nnc3-c3n[nH]c4c3CCC4)SC2)cc1
-24.6% | CC1C(=O)N(Cc2ccccc2F)c2ccccc2N1C(=O)c1c(F)cccc1F (stereo unspecified)
4.6% | COCCCNC(=O)c1cnc2c(-c3ccc(F)cc3)c(C)nn2c1C
21.3% | O=C(N1CCN(Cc2ccc3c(c2)OCO3)CC1)C12CC3CC(CC(C3)C1)C2
-5.6% | Cc1ccc(NC(=O)C2C3CCCC2C3c2ccccc2)cc1C (stereo unspecified)
? | O=[N+]([O-])c1cccc(-c2ccc(C(=S)N3CCN(c4ccccc4)CC3)o2)c1
1.4% | O=C(CCN1CCN(c2ccccc2)CC1)Nc1ccccc1F
-6.0% | CO[C@@H]1c2cc(F)ccc2/C(=C\CCOC(=O)C/C=C/c2ccccc2)[C@H]1C
3.0% | CCOC(=O)N1CCC(N2CCN(Cc3ccccc3)C(CCO)C2)CC1 (stereo unspecified)
-2.4% | COc1ccc(CN(C)C(=S)Nc2ccc(Cl)cc2Cl)cc1
1.2% | CCc1ccccc1OCC(=O)Nc1ccc(N2CCCC2)cc1C

Later entries.
VDR inh | compound
-7.7% | CCOc1ccc(NC(=O)CSc2nc3ccccc3nc2N2CCCC2)cc1
7.8% | O=C(COC(=O)c1ccccn1)c1ccc(Br)cc1
1.9% | COc1ccc(CC(=O)NNC(=O)c2ccco2)cc1
-9.5% | CC(=O)Nc1ccc(SC[C@H](Cc2ccccc2)N2CCN(CC(C)C)CCC2=O)cc1
-20.8% | O=C(CNCc1ccccc1Cl)Nc1ccc2c(c1)OCCO2
-2.2% | O=C(CCSCc1ccc(Cl)cc1)N1CCN(c2ccccc2F)CC1
13.3%&7.9% | COc1ccc(N=C2SC(C(=O)Nc3ccc4c(c3)OCO4)CC(=O)N2C)cc1 (stereo unspecified)
-12.1% | COc1ccc(-c2noc(-c3cc(C)cc(C)c3)n2)cc1OC
-14.0% | Cc1ccc(C)c(NS(=O)(=O)c2ccc(NC(=O)CSc3ccc(Cl)cc3)cc2)c1
6.7% | Cc1cccn2cc(CNC(=O)C3CCCCC3)nc12
-27.0% | COC(=O)c1sccc1NC(=O)c1ccccc1Br
28.2µM* | O=C(Nc1nnc(COc2ccc(Cl)cc2)s1)c1ccco1
-8.1% | CSc1ccccc1OCc1cc(C(=O)N2CCN(Cc3nccn3C)CC2)no1
23.1% | COC(=O)c1c(C)[nH]c(C(=O)OCC(=O)c2c(N)n(CC(C)C)c(=O)n(C)c2=O)c1C
-11.5% | C[n+]1cc(-c2ccccc2)n2c1CCCCC2
-11.5% | CCCC(=O)Nc1cc(Cl)ccc1N1CCN(C(=O)CC)CC1
6.2% | CC(C)(C)OC(=O)NCCCCCNC(=O)c1nc[nH]c1C(=O)N1CCN(c2ccccc2)CC1
-0.4% | CC(Oc1ccc2oc(-c3ccccc3)c(C(=O)O)c2c1)C(=O)O (stereo unspecified)
5.8%&8.1%&1.6%&-1.3% | CN=C(NC#N)NCCSCc1nc[nH]c1C
2.2% | O=C(c1ccco1)N1CCN(Cc2nc3cc(Cl)ccc3c(=O)[nH]2)CC1
-1.7% | CC(C)Sc1nnc2c3ccccc3n(C)c2n1
-9.0% | COCCn1c(-c2ccccc2)nc(=S)c2c1CC(C)(C)OC2
-5.9% | CCOc1ccc(OCC(=O)c2c(O)c3ccccc3oc2=O)cc1
-21.3% | Cc1ccc(/C=C2\SC(=S)N(CCC(=O)NNS(=O)(=O)c3ccc(C)cc3)C2=O)cc1
-6.9% | CN(C)S(=O)(=O)c1cccc(NC(=O)c2cccc(N3C(=O)CCC3=O)c2)c1

With a hit mark in VDR inh, among the entries above:
VDR inh | compound
28.2µM* | O=C(Nc1nnc(COc2ccc(Cl)cc2)s1)c1ccco1

The main list resumes with the four entries that preceded the break.
VDR inh | compound
-9.0% | COCCn1c(-c2ccccc2)nc(=S)c2c1CC(C)(C)OC2
-5.9% | CCOc1ccc(OCC(=O)c2c(O)c3ccccc3oc2=O)cc1
-21.3% | Cc1ccc(/C=C2\SC(=S)N(CCC(=O)NNS(=O)(=O)c3ccc(C)cc3)C2=O)cc1
-6.9% | CN(C)S(=O)(=O)c1cccc(NC(=O)c2cccc(N3C(=O)CCC3=O)c2)c1
6.3% | CCn1c2ccccc2c2cc(NC(=O)COC(=O)c3cc(S(N)(=O)=O)c(Cl)cc3Cl)ccc21
0.1% | CC(C)N1C(=O)CCC1C(=O)N1CCCc2ccccc21 (stereo unspecified)
-12.4% | N=c1ncn(Cc2ccccc2)c2nc(SCCOc3ccccc3)[nH]c12
-6.4% | O=C(CN1CCN(c2ccccn2)CC1)Nc1cc(F)ccc1F
5.8% | Cc1ccnc(NC(=O)CS(=O)(=O)Cc2ccccc2)c1
44.7µM* | Nc1sc2c(c1C(=O)c1ccc(Cl)cc1)CCCC2
-16.0% | C=CC[C@](C)(Nc1ccc(OC)cc1)C(=O)OCC
-17.3% | Cc1nc([N+](=O)[O-])cn1CC(=O)c1ccc(F)cc1
-15.6% | CCCCn1c(N)c(N(CC(C)C)C(=O)C2CCN(S(=O)(=O)c3ccccc3)CC2)c(=O)[nH]c1=O
? | COc1cc(OC)cc(C(=O)NCc2ccc3[nH]c(C)cc3c2)c1
15.7%&-9.7% | CC(/C=C\c1cccnc1)=C/C(=O)O
-2.6% | CC[C@@H](C)[C@H](NC(=O)CNC(=O)Cc1c(C)c2c(cc(C)c3c(C)coc32)oc1=O)C(=O)O
-28.3% | C=CCn1c(SCC(=O)c2cccs2)nnc1-c1cccc(OC)c1
21.4% | O=C(COc1ccccc1Br)NCc1ccco1
0.4% | CN(C)CCCNc1nc(-c2ccc(Cl)cc2)nc2ccccc12
-12.8% | O=C(Nc1cnccn1)c1csc2ccccc12
-3.2% | CCCCNC(=O)N(CC)c1c(N)n(Cc2ccccc2)c(=O)[nH]c1=O
4.4% | Cc1ccc2[nH]c(=O)c3cc(C(=O)N(C)c4ccc(Br)cc4)sc3c2c1
-12.3% | Cc1nnc(SCC(=O)c2cc(C)n(C3CC3)c2C)s1
0.0% | Cc1cc(=O)oc2c3c(cc(OCC(=O)NCc4cccnc4)c12)OC(C)(C)CC3
-6.1% | CN(C)S(=O)(=O)c1ccc(N2CCCC2)c(C(=O)Nc2nc3ccc(F)cc3s2)c1
13.4% | COc1ccc(NC(=O)CN(C)C2CCCCC2)c([N+](=O)[O-])c1
-2.2% | CCOC(=O)C1CCN(C(=O)CSc2nnc(-c3ccco3)n2-c2ccccc2)CC1
12.1% | CCNC(=S)N/N=C/c1cc(C)ccc1C
0.5% | COc1ccc(NC(=O)C(C)N2C(=O)C3CC=C(Cl)CC3C2=O)cc1 (stereo unspecified)

Some of the entries so far, as labelled records.
CCOC(=O)c1cccc(Nc2ncnc3ccccc23)c1
  VDR inh: 7.5%

O=C(N/N=C/C=C/c1ccccc1)c1ccc(Br)cc1
  VDR inh: -4.5%

Clc1ccc(N/N=C/c2ccncc2)cc1Cl
  VDR inh: -20.6%

Fc1ccc(/C=N/NC(=S)Nc2cccnc2)cc1F
  VDR inh: 2.6%

Continuation:
VDR inh | compound
6.8% | Cc1ccc(S(=O)(=O)c2c(N)n(Cc3ccco3)c3nc4ccccc4nc23)cc1C
-27.5% | O=C(N/C(=C\c1ccccc1)C(=O)N1CCCCCC1)c1ccccc1
-2.6% | COc1ccc(/C=C2/N=C3CCCCCN3C2=O)cc1OC
? | COc1ccccc1Cc1nnc(NC(=O)C2CCN(C(=O)c3ccco3)CC2)s1
0.4% | COC(=O)c1sc(-c2ccccc2)cc1NC(=O)Nc1ccc(Cl)cc1
-11.8% | Cc1ccc(-c2n[nH]c(=O)c3ccccc23)cc1S(=O)(=O)N(C)C
-12.4% | O=C(CN1C(=O)c2ccccc2S1(=O)=O)Nc1cccc(S(=O)(=O)N2CCOCC2)c1
4.6% | CC(C)CCc1noc(CN2CCC(C(=O)N3CCOCC3)CC2)n1
14.7% | O=C(Nc1ccc(C(=O)O)cc1)/C(=C\c1ccc2c(c1)OCO2)NC(=O)c1ccc(Br)cc1
-8.3% | CC1CCN(C(=O)c2nc[nH]c2C(=O)N2CCC(C)CC2)CC1
-13.2% | O=C(NCCCc1ccccc1)c1cccc(S(=O)(=O)N2CCOCC2)c1
-4.3% | COc1cc(/C=N/N=C2/NC(=O)C(Cc3ccc(F)cc3)S2)ccc1O (stereo unspecified)
89.1µM* | CCCOc1ccc(-c2nc(=S)[nH][nH]2)cc1
-13.7% | Cc1ccc(/C=C2\SC(=S)N(CCC(=O)NNC(=O)c3cccnc3)C2=O)cc1
9.7% | CCOC(=O)c1c(NC(=O)CN2C(=O)NC(C)(c3ccccc3)C2=O)sc(C)c1C (stereo unspecified)
11.6% | O=C(Nc1ccccc1C(=O)N1CCCCC1)c1nsc2ccccc12
12.6% | O=C(CCC1CCCN(C(=O)CCN2CCCCC2=O)C1)NCc1ccccc1F (stereo unspecified)
4.6% | O=C(c1c[nH]c(C(=O)C(Cl)(Cl)Cl)c1)c1ccc(F)cc1Cl
1.5% | Cc1cc(NC(=O)CSc2cc(Cl)ccc2Cl)n(-c2ccccc2)n1
6.0% | Cc1ccc(S(=O)(=O)N2CCC(C(=O)N[C@@H](Cc3ccccc3)C(=O)O)CC2)cc1
8.0% | Cc1ccc(C(=O)Oc2ccc(/C=N/NC(N)=O)cc2)cc1
12.7% | COc1ccnc(Oc2ccccc2)c1C(=O)N/C=N/OCc1ccc(F)cc1Cl
3.5% | CCN1CN(Cc2ccccc2)CNC1=S
